Source: PubChem BioAssay
VCAM-1 down – suppression of endothelial VCAM-1 upregulation – cell-based, plate reader, pooled HUVEC, TNFa stimulus (AID 454); HUVEC TNFa-induced VCAM-1 surface immunofluorescence, plate reader; numbers were filed only for top-ranked candidate wells; inhibition, % at 5 µM; 0.2% of 10,000 active;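 active means compound among top-ranked inhibitors of TNF-induced VCAM-1 adhesion protein staining, with the hit upheld by image or statistical review; inactive means the rest, including hits rejected on review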;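 further: 0% = TNFa with vehicle and 100% = cells without TNFa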
FPR binder – ligands of human FPR, also counter-screen for FPRL1 ligands. P21462. 0.74% of 24,000 active. FPR-expressing cells, fluorescent ligand binding, flow cytometry. AID 440. inhibition, %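 (tested at 6.7 µM)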;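 further: 0% = buffer wells and 100% = receptor blocker peptide wells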
Target sequence (P21462 whole entry, looked up): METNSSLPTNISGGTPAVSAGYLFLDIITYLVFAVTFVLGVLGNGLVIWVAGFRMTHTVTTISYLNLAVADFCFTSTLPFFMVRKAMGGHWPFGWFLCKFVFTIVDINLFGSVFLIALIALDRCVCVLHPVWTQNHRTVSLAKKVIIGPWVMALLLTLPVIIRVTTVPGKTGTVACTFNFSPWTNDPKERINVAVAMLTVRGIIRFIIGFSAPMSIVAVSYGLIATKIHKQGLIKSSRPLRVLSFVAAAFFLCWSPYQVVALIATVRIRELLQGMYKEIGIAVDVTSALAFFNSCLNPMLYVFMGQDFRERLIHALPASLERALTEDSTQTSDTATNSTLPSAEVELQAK
VCAM-1 imaging – suppression of endothelial VCAM-1 upregulation – imaging, high-content imaging, pooled HUVEC, TNFa stimulus (AID 456); HUVEC TNFa-induced VCAM-1 surface expression, immunofluorescence imaging; numbers were filed only for top-ranked candidate wells; inhibition, % at 5 µM; hits with a dose series show IC50 in µM; 0.2% of 10,000 active;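 active means top tenth filtered wells with inhibition above zero that passed visual or statistical confirmation; inactive means the rest, including hits rejected on review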;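 further: 0% = stimulated vehicle wells and 100% = unstimulated cells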
FPRL1 binder – binds the human formylpeptide receptor-like-1 FPRL1. P25090. FPRL1-expressing cells, fluorescent ligand binding inhibition, flow cytometry. inhibition, %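 (tested at 6.7 µM)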. 0.3% of 24,000 active;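 further: 0% = buffer alone and 100% = receptor blocker peptide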
Target sequence (P25090 whole entry, looked up): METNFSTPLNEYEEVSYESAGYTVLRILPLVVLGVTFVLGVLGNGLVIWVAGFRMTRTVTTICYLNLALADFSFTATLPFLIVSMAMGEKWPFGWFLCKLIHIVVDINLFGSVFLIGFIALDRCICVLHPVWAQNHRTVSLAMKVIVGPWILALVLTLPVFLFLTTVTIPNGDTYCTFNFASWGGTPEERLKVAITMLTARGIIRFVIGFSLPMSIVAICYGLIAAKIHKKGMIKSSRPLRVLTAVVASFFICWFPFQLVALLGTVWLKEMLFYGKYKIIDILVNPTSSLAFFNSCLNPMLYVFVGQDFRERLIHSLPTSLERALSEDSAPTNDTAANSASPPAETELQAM
VCAM-1 augmentation – boosters of cytokine-driven VCAM-1 levels – imaging, high-content imaging, pooled HUVEC, TNFa stimulus (AID 457). Pooled HUVEC, TNFa-induced VCAM-1 immunofluorescence imaging; hits of this screen are not shown here. 0.2% of 10,000 active. calls only;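 active means a top-ranked rise in VCAM-1 staining upheld on image or statistical review; inactive means the rest, including candidates rejected on review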;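 further: compounds tested at 5 µM in the well; cells exposed to compound for 24 hours before fixing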
* marks the source's active call; other numbers are inactive results; i = inactive; . = not tested or not shown.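 How the source made its calls, unless noted: active means mean above 30%; inconclusive means self-fluorescent; inactive means the rest.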 Not all compounds are listed. The share of hits here may be higher or lower than overall.

Below each compound – VCAM-1 down, FPR binder, VCAM-1 imaging, FPRL1 binder, VCAM-1 augmentation
1	CC(C)(O)c1cn(-c2nonc2N)nn1
  ., -2.5, ., 2.5, .
2	COc1cc(NC(=O)c2ccc(NS(=O)(=O)c3c(C)noc3C)cc2)cc(OC)c1
  ., 1.3, ., -7.0, .
3	CN(C)S(=O)(=O)c1ccc2c(c1)C(CC(=O)O)OC2=O (configuration not stated)
  i, 0.9, i, 3.8, i
4	CCCS(=O)(=O)N1CCC(C(=O)NCCCN2CCCC2=O)CC1
  ., -1.3, ., 5.6, .
5	O=C1CCc2cc(S(=O)(=O)NC(Cc3ccccc3)C(=O)NC3CCCCC3)ccc2N1 (configuration not stated)
  ., 3.1, ., 3.8, .
6	Cc1[nH]nc2c1C(c1ccccc1)C1=C(CC(C)(C)CC1=O)N2 (configuration not stated)
  ., 0.7, ., 0.1, .
7	Cc1cccc(NC(=O)Cn2c(=O)n3nc(CCn4nc(C)cc4C)nc3c3ccccc32)c1
  ., -10.0, ., -7.2, .
8	CCn1c(=O)n(CC(=O)NCc2ccco2)c(=O)c2ccccc21
  ., -10.9, ., 0.6, .
9	Cc1ccc(CNC(=O)Cn2c(=O)oc3ccccc32)o1
  ., -3.8, ., 3.7, .
10	COc1cc(OC)c(C2C(C(=O)Nc3ccc(C)cc3C)=C(C)Nc3ncnn32)cc1OC (configuration not stated)
  ., -0.6, ., 6.8, .
11	COc1ccc(S(=O)(=O)Nc2c(C)ccc3nsnc23)cc1OC
  ., 12.1, ., 8.3, .
12	CCCCN(C)C(=O)c1cn(CC)c2ccc(S(=O)(=O)N(C)C)cc2c1=O
  ., 1.2, ., -1.9, .
13	Cc1nnc(N(C)C(=O)c2cccnc2)s1
  i, -2.0, i, -2.0, i
14	CC(C)OC(=O)C1C2C=CC3(CN(Cc4cccs4)C(=O)C13)O2 (configuration not stated)
  i, 10.0, i, 1.0, i
15	O=C(CN1CCN(S(=O)(=O)c2ccc(F)cc2)CC1)Nc1ccccc1F
  ., 5.7, ., 0.0, .

Below each compound – VCAM-1 down, FPR binder, VCAM-1 imaging, FPRL1 binder, VCAM-1 augmentation
16	Cc1ccc(-n2c(=O)[nH]cc(C(=O)Nc3ccc4c(c3)OCCO4)c2=O)cc1
  ., -2.2, ., 4.3, .
17	COCCNC(=O)C(c1ccc(C)o1)N(Cc1cccs1)C(=O)c1snc(C(N)=O)c1N (configuration not stated)
  i, 2.0, i, 6.0, i
18	CCCc1cc(=O)n2[nH]c(C)c(-c3ccccc3)c2n1
  ., 34.7*, ., 28.8, .
19	O=c1cc(N2CCC(Cc3ccccc3)CC2)[nH]c(=O)n1C1CCCCC1
  ., -2.5, ., 2.0, .
20	Cc1cccc(NC(=O)CSc2nc3c(c(=O)[nH]2)CCC3)c1C
  ., 1.3, ., -0.8, .
21	CCOCCCNC(=O)C1CCCCN1S(=O)(=O)c1ccc(F)cc1 (configuration not stated)
  ., -5.2, ., -3.5, .
22	CC1C/C=C/C=C/C=C/C=C/C(O[C@@H]2O[C@H](C)[C@@H](O)[C@H](N)[C@@H]2O)CC2OC(O)(CC(O)CC3OC3/C=C/C(=O)O1)CC(O)C2C(=O)O (some centres not stated)
  i, 2.7, i, -3.0, i
23	COc1cc(C(=O)OCn2nnc3ccccc3c2=O)cc(OC)c1OC
  ., -1.1, ., -1.0, .
24	Cc1ccnc(NC(=O)CCC(=O)N(CC(=O)NC2CCCCC2)c2cccc(C)c2C)c1
  i, 9.4, i, -1.6, i
25	COc1ccc(C(=O)NCCn2cc(SCC(=O)Nc3nnc(C)s3)c3ccccc32)cc1
  ., 3.1, ., -0.7, .
26	CC(=O)c1cc(C#N)c(SCC(=O)OC(C)C)nc1C
  i, 3.7, i, -9.8, i
27	CN(CC(=O)N1CCN(c2ccccn2)CC1)S(=O)(=O)c1ccc2ccccc2c1
  i, -2.3, i, 1.7, i
28	COc1ccc2nc(NC(=O)CCn3cccc3)sc2c1
  ., -2.1, ., 3.0, .
29	COc1ccc(Cl)cc1Nc1nc(NCCO)nc(N2CCCC2)n1
  i, -2.0, i, 2.9, i
30	O=C(CN1CCN(S(=O)(=O)c2ccc(F)cc2)CC1)Nc1cccc(C(F)(F)F)c1
  ., -0.7, ., -0.9, .

Below each compound – VCAM-1 down, FPR binder, VCAM-1 imaging, FPRL1 binder, VCAM-1 augmentation
31	CN1CCN(c2ncnc3c2cnn3-c2ccc(Cl)cc2)CC1
  i, -3.1, i, 3.4, i
32	O=C(CSc1nnc(-c2ccccc2Cl)n1Cc1ccco1)Nc1ccc2c(c1)OCCO2
  i, -0.8, i, -6.0, i
33	COc1ccc(OCc2cccc(C(=O)O)c2)cc1
  i, 3.3, i, -0.1, i
34	CC(C)Cn1c(=O)c(C2=NS(=O)(=O)c3ccccc3N2)c(O)c2ccccc21
  i, 3.8, i, -5.2, i
35	O=C(Cn1c(=O)oc2ccccc21)Nc1ccc(S(=O)(=O)N2CCCCC2)cc1
  i, 0.7, i, 1.0, i
36	CC(C)N(C)C1CCN(C(=O)Nc2ccc(Cl)cc2)CC1
  ., -2.6, ., 5.4, .
37	CC1=C(C(=O)Nc2ccccc2C)C2(CCCC2)C(C(N)=O)C(=O)N1 (configuration not stated)
  i, -1.7, i, -1.5, i
38	CCOC(=O)N1CCC(c2[nH][nH]c(=O)c2C)CC1
  ., -3.4, ., 1.8, .
39	C=CCn1c(=O)[nH]c2cc(C(=O)N3CCN(c4cc(C)ccc4C)CC3)ccc2c1=O
  i, 1.5, i, -5.8, i
40	COc1cccc(OCc2nc3ccccc3[nH]2)c1
  i, -2.5, i, -5.6, i
41	O=C1C2C3C=CC(C3=C3CCCCC3)C2C(=O)N1c1ccccc1 (configuration not stated)
  i, 1.0, i, -3.5, i
42	Cc1ccc(NC(=O)c2nnn(CC(=O)Nc3ccccc3)c2N)cc1C
  ., -5.2, ., -4.1, .
43	CSC1=NCCN1C(=O)C(C)(C)Oc1ccc(Cl)cc1
  ., 4.9, ., 1.2, .
44	Cc1onc(-c2ccccc2)c1C(=O)NC(C)C
  ., 7.9, ., 11.8, .
45	COc1ccc(-c2cc(N)n(S(=O)(=O)Cc3ccccc3)n2)c(OC)c1
  ., 13.2, ., 8.9, .

Below each compound – VCAM-1 down, FPR binder, VCAM-1 imaging, FPRL1 binder, VCAM-1 augmentation
46	CCCCNC(=O)c1ccc(CS(=O)(=O)c2cccc(C(F)(F)F)c2)o1
  ., 5.4, ., -0.1, .
47	CCC(C)NC(=O)C1CC(c2cccc(OC)c2)=NO1 (configuration not stated)
  ., -0.3, ., 2.7, .
48	Nc1nc(N)nc(-c2ccccc2)n1
  i, 4.4, i, -1.5, i
49	COc1ccc(N2CCN(C(=O)C(C)(C)Oc3ccc(Cl)cc3)CC2)cc1
  i, -7.8, i, -1.8, i
50	COC(=O)C1=C(C)OC(N)=C(C#N)C1C1CCCCC1 (configuration not stated)
  ., -3.4, ., 1.6, .
51	Cn1c(COc2ccc(Cl)cc2)nc2ccccc2c1=O
  ., -14.4, ., 5.5, .
52	CCC(C)n1[nH]c(=O)c2c(C)cc(C)nc21 (configuration not stated)
  i, -7.2, i, 1.1, i
53	CCOC(=O)c1[nH]c(C)c(/C(O)=C2\C(=O)C(=O)N(CCCN3CCOCC3)C2c2cccnc2)c1C (configuration not stated)
  ., -5.5, ., -2.1, .
54	CCOc1ccc(C2CC(c3ccccc3C)n3nc(N)nc3N2)cc1 (configuration not stated)
  i, 9.6, i, -0.2, i
55	COc1cccc(NC2c3ccccc3C(=O)N2Cc2ccco2)c1 (configuration not stated)
  ., 2.8, ., -1.6, .
56	CC(=O)Nc1cc(C(=O)O)ccc1S(=O)(=O)c1ccc(C)cc1
  ., -0.2, ., 3.9, .
57	Cc1c2c(nc3c(C(=O)NC4CCCC4)cnn13)CCCC2
  ., 15.0, ., 9.9, .
58	O=C1CC2(CCCCC2)Oc2ccc(OCC(=O)N3CCOCC3)cc21
  ., 2.0, ., -1.5, .
59	CC1CN(S(=O)(=O)c2ccc(NC(=O)CCN3C(=O)c4ccccc4C3=O)cc2)CC(C)O1 (configuration not stated)
  ., -0.6, ., 3.8, .
60	CCOc1ccc(CCNC(=O)C(C)n2nc(C)n3c(cc4occc43)c2=O)cc1OCC (configuration not stated)
  ., 1.3, ., -7.3, .

In another format: entries from further up
48	Nc1nc(N)nc(-c2ccccc2)n1
49	COc1ccc(N2CCN(C(=O)C(C)(C)Oc3ccc(Cl)cc3)CC2)cc1
Assay by compound	48	49
VCAM-1 down	i	i
FPR binder	4.4	-7.8
VCAM-1 imaging	i	i
FPRL1 binder	-1.5	-1.8
VCAM-1 augmentation	i	i

(cont.)
Below each compound – VCAM-1 down, FPR binder, VCAM-1 imaging, FPRL1 binder, VCAM-1 augmentation
61	CCCNC(=O)NCCc1c(C)[nH]c2ccccc12
  ., 0.8, ., -0.6, .
62	O=C(C(Cc1ccccc1)n1cccc1)N1CCN(Cc2ccccc2)CC1 (configuration not stated)
  ., 3.4, ., -1.8, .
63	O=C(Nc1ccccc1)c1cnc2n(c1=O)CCS2
  i, -5.1, i, -7.7, i
64	N#CCSc1nc2cc(C(=O)N3CCC(C(N)=O)CC3)ccc2c2nc3ccccc3n12
  ., -7.9, ., -5.1, .
65	Cc1ccc2oc(=O)c3cc(C(=O)N4CCN(C(=O)c5ccco5)CC4)sc3c2c1
  ., 0.7, ., -4.0, .
66	Cc1c(C(=O)N2CCCCC2)oc2ccc(S(=O)(=O)N3CC(C)CC(C)C3)cc12 (configuration not stated)
  ., 6.7, ., 3.5, .
67	COc1ccc(S(=O)(=O)Cc2ccc(C(=O)N3CCC(C(N)=O)CC3)o2)cc1
  ., -2.5, ., 3.7, .
68	O=C(c1cccn2c(=O)c3ccccc3nc12)N1CCN(Cc2ccc3c(c2)OCO3)CC1
  ., -2.5, ., -5.6, .
69	COC(=O)c1cc(NC(=O)c2nccnc2C(=O)O)cc(C(=O)OC)c1
  ., 1.3, ., 4.2, .
70	CC(=O)Nc1ccc(OCC(O)Cn2nc(C)nc2C)cc1 (configuration not stated)
  i, 4.9, i, -6.6, i
71	COCCCN(C)C1CCN(C(=O)Nc2ccc(F)cc2)CC1
  i, 13.1, i, 10.2, i
72	CN(C(=O)c1ccccc1Cl)c1ccccc1
  i, 10.6, i, 4.0, i
73	CCOc1cc(C2c3c(n[nH]c3C)C(=O)N2c2ccc(Br)cc2)ccc1O (configuration not stated)
  i, 1.8, i, -5.8, i
74	Cn1c(C(=O)NCCCN2CCCCCC2)cc2c(=O)n(C)c3ccccc3c21
  i, 6.1, i, 3.9, i
75	COc1ccc(S(=O)(=O)N2CCN(CC(=O)Nc3ccc(C)c(F)c3)CC2)cc1
  i, 9.1, i, 1.1, i
76	O=C(NCc1ccccc1)c1noc2c1CCCC2
  ., -7.5, ., -5.7, .
77	O=C(NCCCN1CCOCC1)c1ccc(CNS(=O)(=O)c2ccc(F)cc2)cc1
  ., 2.4, ., -6.4, .
78	CC(C)(C)OC(=O)N1CCC(c2c(C(=O)O)cnn2-c2ccccc2)CC1
  ., -1.8, ., -8.4, .

Among those listed so far, these contain a furan ring, fused or not:
Below each compound – VCAM-1 down, FPR binder, VCAM-1 imaging, FPRL1 binder, VCAM-1 augmentation
8	CCn1c(=O)n(CC(=O)NCc2ccco2)c(=O)c2ccccc21
  ., -10.9, ., 0.6, .
9	Cc1ccc(CNC(=O)Cn2c(=O)oc3ccccc32)o1
  ., -3.8, ., 3.7, .
17	COCCNC(=O)C(c1ccc(C)o1)N(Cc1cccs1)C(=O)c1snc(C(N)=O)c1N (configuration not stated)
  i, 2.0, i, 6.0, i
32	O=C(CSc1nnc(-c2ccccc2Cl)n1Cc1ccco1)Nc1ccc2c(c1)OCCO2
  i, -0.8, i, -6.0, i
46	CCCCNC(=O)c1ccc(CS(=O)(=O)c2cccc(C(F)(F)F)c2)o1
  ., 5.4, ., -0.1, .
55	COc1cccc(NC2c3ccccc3C(=O)N2Cc2ccco2)c1 (configuration not stated)
  ., 2.8, ., -1.6, .
60	CCOc1ccc(CCNC(=O)C(C)n2nc(C)n3c(cc4occc43)c2=O)cc1OCC (configuration not stated)
  ., 1.3, ., -7.3, .
65	Cc1ccc2oc(=O)c3cc(C(=O)N4CCN(C(=O)c5ccco5)CC4)sc3c2c1
  ., 0.7, ., -4.0, .
66	Cc1c(C(=O)N2CCCCC2)oc2ccc(S(=O)(=O)N3CC(C)CC(C)C3)cc12 (configuration not stated)
  ., 6.7, ., 3.5, .
67	COc1ccc(S(=O)(=O)Cc2ccc(C(=O)N3CCC(C(N)=O)CC3)o2)cc1
  ., -2.5, ., 3.7, .
